# Screens (PubChem)
# PINK1 modulator – changes PINK1 expression | PINK1 immunofluorescence, high-content cytometry, 24 h | 410,000 compounds, 0.2% hits | Potency, µM (top dose mostly 76.6 µM), inactives show top-dose activation (PINK1 increase), actives largely listed as activators; active = well fitted activation curve with a large enough effect; inconclusive = small, poorly fitted or top-dose-only effect; inactive = flat fitted curve, though single readings scatter; cell line not stated here;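 further: potency means the concentration at half of the fitted maximal effect; % of control where 0% means no effect; nearly all actives have a fitted effect of over 65% in size; a mitochondrial uncoupler was the plate control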
#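 PINK1 protein level read as immunofluorescence by microplate cytometer in a fixed, stained stable cell line after 24 h exposure to five compound concentrations, with CCCP as control.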
# TRPV1 potentiator – human TRPV1 potentiation; 320,000 compounds, 0.02% hits; Q8NER1; AID 540277; TRPV1-expressing cells, Fluo-8 calcium influx, capsaicin EC20 potentiation; host cell line not named in the record; control for the full effect not named in the record; potentiation, % at 8.33 µM; active means potentiation above 80%; inconclusive means 30% to 80%; inactive means below 30%; further: 0% is about no effect
#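 Cells expressing TRPV1 were dye-loaded with Fluo-8 and read kinetically: 10 s baseline, 3 min after compound (agonist portion), then 2 min after EC20 capsaicin (allosteric enhancer portion). Calcium-bound dye fluorescence at 480/520 nm.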
# Six1-Eya2 blk – blocks human Six1 binding to Eya2; Q15475+O00167; AlphaScreen GST-Six1/His-Eya2 binding, biochemical; hits give low values; control for the full effect not named in the record; activity change, % (no concentration beside the values); 360,000 compounds, 0.56% hits; AID 651725; in the data active = activity change below about -65%; inconclusive = about -30% to -65%; inactive = above about -30%; further: on the % scale 0 is the no-effect control and ±100 the full control effect
#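 Compounds are tested against tagged Six1 and Eya2 proteins bridged by glutathione donor and nickel acceptor beads; after a one-hour incubation at 37 °C without light, AlphaScreen emission is recorded.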
# D2 agonist – human D2 receptor agonism in beta-arrestin assay | P14416 | DiscoveRx PathHunter D2 beta-arrestin, luminescence, 90 min; 100% = 57 uM dopamine signal | activation, % (concentration not given with the values) | 360,000 compounds, 0.084% hits | AID 624465; in the data active = activation above about 40%; inconclusive = about 15% to 40%; inactive = below about 15%; further: the text of the record calls up to 30% inactive
# Target sequence (P14416 whole entry, looked up): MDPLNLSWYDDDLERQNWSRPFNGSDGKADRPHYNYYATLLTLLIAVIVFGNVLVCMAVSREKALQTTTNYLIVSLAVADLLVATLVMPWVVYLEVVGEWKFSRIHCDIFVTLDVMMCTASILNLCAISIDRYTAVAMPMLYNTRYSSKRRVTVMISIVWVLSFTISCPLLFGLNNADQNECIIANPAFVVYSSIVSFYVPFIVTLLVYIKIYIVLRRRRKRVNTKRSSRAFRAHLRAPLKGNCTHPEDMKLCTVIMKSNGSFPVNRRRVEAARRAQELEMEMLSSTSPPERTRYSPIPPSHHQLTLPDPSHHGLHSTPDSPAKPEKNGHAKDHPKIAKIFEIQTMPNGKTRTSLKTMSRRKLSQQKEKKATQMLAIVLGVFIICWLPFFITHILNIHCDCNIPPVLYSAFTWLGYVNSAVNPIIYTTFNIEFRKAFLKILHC
#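 Agonist mode: compounds alone added to overnight-plated D2 PathHunter cells for 90 min at 37 C, with 57 uM final dopamine (EC100) defining full response. Beta-arrestin recruitment detected by chemiluminescent reagent, read after 1 h at ambient temperature.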
# D2 potentiator – positive allosteric modulators of human D2 dopamine receptor. P14416. DiscoveRx D2 beta-arrestin cells, luminescence, 90 min; 100% = 57 uM dopamine signal. potentiation, % (test concentration not listed). 360,000 compounds, 0.23% hits; active = potentiation of 50% or more; inconclusive = 30% to 50%; inactive = 30% or less;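 further: compound concentration not given in the record; tested on top of an EC20 dose of dopamine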
#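 PathHunter D2 cells, attached overnight at 37 deg C, received compound in DMSO plus dopamine at EC20 (50 nM final) for 90 min at 37 deg C. Beta-arrestin recruitment was read as luminescence after 1 h with detection reagent at ambient temperature.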
# CtBP-E1A blk – inhibitors of CtBP/E1A interaction; AlphaScreen GST-E1A/His-CtBP binding, 1536-well; hits give low values; control for the full effect not named in the record; activity change, % (concentration not given with the values); 340,000 compounds, 0.49% hits; AID 651724; in the data active means activity change below about -65%; inconclusive means about -30% to -65%; inactive means above about -30%; further: on the % scale 0 is the no-effect control and ±100 the full control effect
#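 In 5 uL wells, 23 nL compound meets equimolar GST-E1A and His-CtBP (5X stock 125 nM each) for 2 h, 37 °C. Beads (5X, 50 ug/mL) then 1 h, 37 °C, dark.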
# Sfp inh – blocks B. subtilis Sfp PPTase activity. Q9F4F7. Biochemical Sfp PPTase activity, qHTS. Potency, µM, inactives show max response, negative = inhibition, actives largely listed as inhibitors. 310,000 compounds, 3.5% hits. AID 1490; active means well fitted inhibition curve with a large enough effect; inconclusive means small, poorly fitted or top-dose-only effect, or another doubt; inactive means no such curve, though single readings can be large or run the other way;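 further: the enzyme is Sfp with the accession as filed and its product quenches rhodamine fluorescence; potency means the concentration at half of the fitted maximal effect; 0% = enzyme reaction without inhibitor and -100% = no enzyme wells; top concentration of the series not given in the record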
#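 Fluorescence-quenching assay with 15 nM Sfp, 5 uM rhodamine-CoA and 12.5 uM BHQ-2-labelled ybbR peptide in pH 7.6 Hepes/MgCl2 buffer. Enzyme was pre-incubated with compound for 15 min at room temperature. Rate was taken from the 30-min fluorescence change (525/598 nm).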
# * = called active by the depositor; ? = inconclusive; nt = not tested or not shown; [ ] = remark or other dose.
SMILES,PINK1 modulator,TRPV1 potentiator,Six1-Eya2 blk,D2 agonist,D2 potentiator,CtBP-E1A blk,Sfp inh
C#Cc1ccc(CN2CCC(C(=O)Nc3ccc(Oc4ccccc4)nc3)CC2)cc1,-1.0%,22,-8,-2.9,-27,-1,10%
Cc1ccc(NS(=O)(=O)c2ccc(C)c(C(=O)N3CCOCC3)c2)cc1,-1.2%,4,37,-0.2,-16,0,6%
COc1cccc(CNC(=O)c2cnc(-c3ccccn3)nc2C(F)(F)F)c1,-2.0%,?,-8,-4.1,-5,-4,7%
COc1ccc2nc(SCC(=O)Nc3c(C)cccc3C)[nH]c2c1,-0.6%,1,1,0.5,-10,0,1%
O=C(c1ccc(F)cc1)N1CCCC(C(=O)N2CCc3ccccc3C2)C1 (stereo unspecified),0.2%,-34,8,-2.3,-1,nt,2%
O=C(CCCCn1c(=O)[nH]c2ccccc2c1=O)NC1CCN(Cc2ccccc2)CC1,-0.4%,23,6,-3.5,-10,-1,10%
NS(=O)(=O)c1ccc(NC(=O)C2CCCO2)cc1 (stereo unspecified),-2.7%[38.3 µM],4,3,0.5,-2,0,10%
Cc1ccnc(NS(=O)(=O)c2ccc(NS(C)(=O)=O)cc2)n1,0.1%,5,5,-6.0,-8,8,17%
NC(=O)/C(=C/c1ccc2c(c1)OCO2)NC(=O)c1ccco1,2.4%,1,-1,-0.1,-2,8,25%
Cn1cc(CN2CCN(Cc3ccccc3)CC2)c(-c2cccc(Cl)c2)n1,-0.6%,4,-10,-4.7,-20,nt,-1%
Cc1cccc2sc(NNC(=O)c3ccc4c(c3)OCCO4)nc12,-0.6%,9,1,0.1,8,-21,40µM*
O=C(Nc1ccccc1C(=O)O)c1cccc(N2C(=O)c3ccccc3C2=O)c1,-1.0%,8,-14,-2.1,-5,-3,26%
O=S(=O)(NC1CC1)c1ccc2c3c(cccc13)CC2,1.3%,-1,-2,0.7,-10,-2,5%
CCCC(C(=O)NC1CCCC1)N(Cc1ccc(F)cc1)C(=O)c1snc(C(N)=O)c1N (stereo unspecified),2.4%,2,1,2.7,2,9,23%
CC(=O)COC(=O)C1CCN(S(=O)(=O)c2cc([N+](=O)[O-])ccc2Cl)CC1,-0.5%,3,-4,-1.6,14,3,-5%
CCc1nc2c(OCCC3CCCCC3)cccn2c1N(C)C(=O)C1CC1,0.7%,nt,0,-2.9,-10,-8,nt
CCCC(=O)c1cn(CC(=O)OC)c2ccccc12,-3.1%,7,-1,-3.0,-12,6,15%
O=C(Nc1nc(-c2cc(F)ccc2F)cs1)C1=COCCO1,-0.2%,-12,0,-3.8,-28,2,nt
CC1CCCCN1S(=O)(=O)c1ccc(N(C(=O)c2cnccn2)C(C(=O)NC2CCCCC2)c2cccs2)cc1 (stereo unspecified),2.6%,-14,1,-0.8,6,1,-7%
COc1ccc(-n2nc3ccc(N)cc3n2)cc1,-0.1%,nt,-2,-1.5,-15,-2,nt
COc1ccc(CNC(=O)CN2C(=O)NC(Cc3ccccc3)(c3ccccc3)C2=O)cc1OC (stereo unspecified),0.0%,8,-4,1.8,0,9,nt
Nc1cc(-c2cccc(Br)c2)nn1Cc1ccccc1,7.1%,0,0,0.9,15,-10,?
O=C(Nc1ccc(N2CCN(C(=O)c3ccco3)CC2)cc1)c1ccco1,-0.5%,-2,4,-2.8,-1,3,14%
O=C(CNC(=O)c1ccc(Br)o1)Nc1ccccc1,0.6%,23,0,-2.5,-3,-1,14%
CC1CC1C(=O)OCC(=O)NC(=O)c1ccc(C(C)(C)C)cc1 (stereo unspecified),12%,nt,0,-0.4,-3,2,nt

# Exported tab-delimited: part of the list above.
Molecule	PINK1 modulator	TRPV1 potentiator	Six1-Eya2 blk	D2 agonist	D2 potentiator	CtBP-E1A blk	Sfp inh
CC(=O)COC(=O)C1CCN(S(=O)(=O)c2cc([N+](=O)[O-])ccc2Cl)CC1	-0.5%	3	-4	-1.6	14	3	-5%
Cc1ccnc(NS(=O)(=O)c2ccc(NS(C)(=O)=O)cc2)n1	0.1%	5	5	-6.0	-8	8	17%
Cn1cc(CN2CCN(Cc3ccccc3)CC2)c(-c2cccc(Cl)c2)n1	-0.6%	4	-10	-4.7	-20	nt	-1%
Nc1cc(-c2cccc(Br)c2)nn1Cc1ccccc1	7.1%	0	0	0.9	15	-10	?
CCCC(C(=O)NC1CCCC1)N(Cc1ccc(F)cc1)C(=O)c1snc(C(N)=O)c1N (stereo unspecified)	2.4%	2	1	2.7	2	9	23%
O=C(Nc1ccccc1C(=O)O)c1cccc(N2C(=O)c3ccccc3C2=O)c1	-1.0%	8	-14	-2.1	-5	-3	26%

# (next part)
SMILES,PINK1 modulator,TRPV1 potentiator,Six1-Eya2 blk,D2 agonist,D2 potentiator,CtBP-E1A blk,Sfp inh
O=C(Cc1ccc(F)cc1)Nc1c(C(=O)N2CCN(c3ncccn3)CC2)oc2ccccc12,-0.4%,11,-2,-4.0,-27,-8,-10%
Cc1nn(-c2ccccc2)c(C)c1/C=C/C(=O)OC(C)C(N)=O (stereo unspecified),-0.5%,-19,-8,5.4,-15,?,12%
O=C(C1CCCN(Cc2cc(Br)ccc2O)C1)N1CCCCC1 (stereo unspecified),-0.8%,0,3,-0.2,-13,5,-15%
COc1ccc(/C=N/NC(=O)c2nn(-c3ccc(C)c(C)c3)c(=O)c3ccccc23)cc1,2.5%,8,-9,-4.1,5,-5,2%
CCCNC(=O)C1(C)CCCN(C(=O)Cc2ccc3ccccc3c2)C1 (stereo unspecified),-0.6%,nt,3,-5.3,-11,8,nt
C/C(=N\NC(=O)c1ccccc1Cl)c1ccccn1,1.8%,-5,-91*,-6.3,8,nt,11%
CCOC(=O)c1cc(CC)sc1NC(=O)c1ccc([N+](=O)[O-])c(N2CCOCC2)c1,14%,-15,-2,2.6,-22,2,-5%
Cc1cc(C)c(NC(=O)/C=C\C(=O)O)c([N+](=O)[O-])c1,0.8%,5,-2,-2.3,-6,-18,?
Cc1nc(N/N=C/c2cccnc2)cc(N2CCOCC2)n1,1.1%,nt,-4,0.0,-4,-6,nt
O=C(c1ccco1)N1CCN=C1SCc1ccccc1Cl,0.8%,-7,17,-0.9,-7,-1,4%
O=C(NC1CCCCC1)c1cc(-c2ccccc2Cl)on1,6.8%,-14,2,-4.0,-7,-15,10%
COc1ccccc1NC(=O)C1CC(C)OC1=O (stereo unspecified),0.9%,nt,6,-2.9,1,-3,nt
COc1ccccc1NS(=O)(=O)c1cc(C(=O)NCCC(C)C)ccc1F,-0.3%,15,4,-0.2,-4,0,-1%
CC(=O)Nc1cccc(C(=O)N2CCN(S(=O)(=O)Cc3ccccc3)CC2)c1,-2.6%,nt,-3,-8.1,-2,2,nt
Nc1cc(C(=O)OCC(=O)NCCNC(=O)COC(=O)c2ccc(Cl)c(N)c2)ccc1Cl,1.5%,9,-8,3.4,3,-2,16%
CN(CC(=O)Nc1ccc(F)cc1)C(=O)COC(=O)/C=C/c1ccccc1[N+](=O)[O-],-0.6%,-5,8,-1.4,-3,nt,nt
COc1ccc(NC(=O)CSc2nnc(C3CCCCC3)n2N)cc1,0.8%,17,3,-0.9,-11,-1,2%
CC(C)(CC(=O)O)CC(=O)Nc1cc(C(F)(F)F)cc(C(F)(F)F)c1,1.0%,-4,5,4.2,-10,-2,16%
COc1ccc(NC(=O)Cn2c(-c3ccccc3)cn(-c3ccc(C)cc3)c2=O)cc1,6.2%,-5,?,-1.5,-3,-23,-10%
CC(C)(C)c1ccc(NC(=O)NCc2ccco2)cc1,12%[38.3 µM],-20,-8,-2.1,-7,3,8%
O=C(COc1ccc(CO)cc1Cl)Nc1ccc(F)cc1,-2.3%,-23,4,-0.5,-7,-2,1%
CC(C)C(N)c1csc(Nc2ccc(C(=O)N(C)Cc3ccccc3)cn2)n1 (stereo unspecified),5.4%,nt,?,-2.6,-4,?,nt
Cc1oc2c(cc(NS(=O)(=O)c3cccs3)c3ccccc32)c1C(=O)OC(C)C,-2.4%,23,-8,8.1,-1,1,?
CCc1nnc(NC(=O)CSc2nnc(-c3ccccc3O)n2-c2ccc(C)cc2C)s1,4.5%,-20,-10,2.1,-3,1,-10%
Cc1ccc(Oc2ncnc(N)c2[N+](=O)[O-])cc1C,1.1%,-24,-3,-3.6,1,14,17%
# The listing continues.
SMILES,PINK1 modulator,TRPV1 potentiator,Six1-Eya2 blk,D2 agonist,D2 potentiator,CtBP-E1A blk,Sfp inh
COc1ccc(CCN2C(=O)N(c3ccc(OC)cc3)C(=O)C2CC(=O)Nc2ccccc2)cc1 (stereo unspecified),-0.3%,14,11,-1.0,-24,-5,10%
CCCCOC(=O)c1ccc(NC(=O)c2ccccc2OC)cc1,4.2%,-11,19,1.3,7,-7,-4%
O=C(COc1ncnc2ccccc12)NCc1ccc2c(c1)OCO2,-2.0%,-25,6,2.2,10,-3,11%
N#Cc1ccccc1S(=O)(=O)N1CCN(CC(=O)NCC2(N3CCOCC3)CCCCC2)CC1,2.6%,12,2,-1.8,-3,nt,nt
Cc1ccc(C)c(C(=O)COC(=O)CCN2C(=O)C3C4CCC(C4)C3C2=O)c1 (stereo unspecified),-1.4%,7,8,-2.4,7,3,7%
CCNC(=O)CN(CCc1ccccc1)S(C)(=O)=O,1.6%,10,-8,-8.0,-9,-1,19%
CCC(=O)Nc1cccc(NC(=O)CSc2nnnn2Cc2ccccc2)c1,-2.5%,4,3,1.3,-1,-1,3%
CCOC(=O)C1C(=O)C=C(c2ccc([N+](=O)[O-])cc2)CC1c1ccccc1 (stereo unspecified),-2.0%,1,?,-0.6,0,?,1%
COc1cc(NC(=O)c2ccnn2C)c(OC)cc1Cl,0.0%,-3,-2,-3.4,0,2,11%
CCN(c1ccccc1)S(=O)(=O)c1ccc(OC)c(NC(=O)C2=NN(c3ccccc3)C(=O)CC2)c1,0.7%,16,24,0.4,-30,0,nt
CC(=O)NCCc1ccc(S(=O)(=O)N2CCN(c3nc(-c4ccccc4)c(C)s3)CC2)cc1,4.2%,-6,0,1.3,-8,7,7%

# Entries listed so far that have a CF3 group:
SMILES,PINK1 modulator,TRPV1 potentiator,Six1-Eya2 blk,D2 agonist,D2 potentiator,CtBP-E1A blk,Sfp inh
COc1cccc(CNC(=O)c2cnc(-c3ccccn3)nc2C(F)(F)F)c1,-2.0%,?,-8,-4.1,-5,-4,7%
CC(C)(CC(=O)O)CC(=O)Nc1cc(C(F)(F)F)cc(C(F)(F)F)c1,1.0%,-4,5,4.2,-10,-2,16%
